Screens (PubChem)
AF4-AF9 inh – inhibitors of human MLL-AF4/AF9 interaction. 350,000 compounds, 0.47% hits. inhibition, % at 10 µM. AlphaScreen, biotin-AF4 peptide binding to FLAG-AF9. P42568;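 active means every replicate reaching a set inhibition limit, whatever the replicate mean, cut at about 25% in these data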;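 further: 0% = plate neutral control median and 100% = total signal loss; the record names both 10 and 1 µM as test concentration; the first replicate is given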
Target sequence (P42568 whole entry, looked up): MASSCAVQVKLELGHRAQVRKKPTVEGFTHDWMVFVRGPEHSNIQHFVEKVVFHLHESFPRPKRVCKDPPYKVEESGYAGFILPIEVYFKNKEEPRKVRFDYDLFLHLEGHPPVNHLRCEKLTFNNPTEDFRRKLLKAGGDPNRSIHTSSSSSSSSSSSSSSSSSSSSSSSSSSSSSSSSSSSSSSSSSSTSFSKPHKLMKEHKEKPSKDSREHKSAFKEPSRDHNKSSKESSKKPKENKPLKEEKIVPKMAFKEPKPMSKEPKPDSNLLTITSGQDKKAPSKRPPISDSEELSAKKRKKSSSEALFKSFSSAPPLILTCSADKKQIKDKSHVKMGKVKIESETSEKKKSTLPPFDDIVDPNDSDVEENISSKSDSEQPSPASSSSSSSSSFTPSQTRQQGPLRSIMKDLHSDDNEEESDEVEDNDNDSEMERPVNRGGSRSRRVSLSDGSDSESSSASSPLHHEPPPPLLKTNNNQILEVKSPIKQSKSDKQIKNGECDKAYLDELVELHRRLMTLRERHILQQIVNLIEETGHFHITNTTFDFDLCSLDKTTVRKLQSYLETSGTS
Ecoli rRNA inh – inhibitors of bacterial rRNA selective over humanized ribosomes. E. coli WT GFP vs humanized-ribosome RFP mutants, fluorescence, 24 h; stronger effect = lower value; DMSO median 0, no signal -100. 350,000 compounds, 1.6% hits. GFP signal change (wild-type ribosome), % (no concentration beside the values). AID 720706;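 active means significant combined selectivity score with lowered wild-type GFP, culture density cut under 30%, mutant RFP and density less affected; inactive means any of these conditions unmet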; further: one replicate is shown; some compounds called inactive have numbers as strong as hits
Ecoli rRNA inh OD600 – second read-out of Ecoli rRNA inh, no call of its own (marks repeat the call); OD600 change, %; measured here: OD600 growth;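 optical density of the mix in the first replicate; 0 = DMSO median and -100 = no signal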
Ecoli rRNA inh RFP – second read-out of Ecoli rRNA inh, no call of its own (marks repeat the call); RFP signal change, %; measured here: RFP humanized mutant strains;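 first replicate; 0 = DMSO median and -100 = no signal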
Starred values were filed as active, the others as inactive; & = joins results of further samples. This is a subset. The share of hits here may be higher or lower than overall.

AF4-AF9 inh	Ecoli rRNA inh	Ecoli rRNA inh OD600	Ecoli rRNA inh RFP	SMILES
-0.8	5	4	-2.0	C[C@@H]1CN([C@@H](C)CO)C(=O)Cc2cc(NC(=O)Nc3ccc4c(c3)OCO4)ccc2O[C@H]1CN(C)S(C)(=O)=O
1.2	-35	-64	2.3	O=C(Cc1ccccc1)N1CC(=O)N2[C@H](CO)[C@@H](c3ccc(-c4cccc(F)c4)cc3)[C@H]2C1
-6.5	4	20	2.6	O=C(c1ccccc1F)N1CC(=O)N2[C@H](CO)[C@@H](c3ccc(-c4cccnc4)cc3)[C@H]2C1
-3.9	2	0	3.2	COc1cccc(NC(=O)N[C@@H]2C=C[C@H](CC(=O)N3CCOCC3)O[C@@H]2CO)c1
3.3	0	7	-1.7	COc1ccc(NC(=O)N(C)C[C@@H]2Oc3ccc(NC(=O)Cc4ccccc4)cc3CC(=O)N([C@H](C)CO)C[C@@H]2C)cc1
-1.7	3	-1	-3.5	O=C(Cc1ccccc1)N1CC(=O)N2[C@H](CO)[C@H](c3ccc(Br)cc3)[C@@H]2C1
-1.6	6	13	-2.1	CN(C)C(=O)c1ccc(-c2ccccc2[C@H]2[C@H](C#N)N(C(=O)C3CC3)[C@H]2CO)cc1
1.6	-4	-3	0.4	Cc1ccc(S(=O)(=O)N(C)C[C@@H]2OCCCC[C@H](C)Oc3ccc(NC(=O)NC(C)C)cc3C(=O)N([C@H](C)CO)C[C@H]2C)cc1
-5.3	-2	7	2.7	COc1cc(CN2CC3(CN(C(=O)CN4CCOCC4)C3)c3c(n(C)c4cc(OC)ccc34)[C@H]2CO)cc(OC)c1
0.9	-3	3	-3.5	COc1ccccc1C(=O)Nc1ccc2c(c1)C(=O)N(C)C[C@H](OC)[C@@H](C)CN(CC1CC1)[C@H](C)CO2
-2.5	1	-2	0.4	C/C=C/c1ccc([C@H]2[C@@H](CO)N(C(=O)NCCC)[C@H]2CN(C)C(C)=O)cc1
0.3	0	3	1.8	CCC(=O)N1CC2(C1)[C@@H](c1ccc(-c3cccc(C)c3)cc1)[C@H](CO)N2S(C)(=O)=O

The final 2 records of the part before lead into the next.
AF4-AF9 inh	Ecoli rRNA inh	Ecoli rRNA inh OD600	Ecoli rRNA inh RFP	SMILES
-2.5	1	-2	0.4	C/C=C/c1ccc([C@H]2[C@@H](CO)N(C(=O)NCCC)[C@H]2CN(C)C(C)=O)cc1
0.3	0	3	1.8	CCC(=O)N1CC2(C1)[C@@H](c1ccc(-c3cccc(C)c3)cc1)[C@H](CO)N2S(C)(=O)=O
0.0	1	-3	1.5	C[C@@H]1CN([C@@H](C)CO)C(=O)c2cc(NS(=O)(=O)c3ccc(Cl)cc3)ccc2O[C@H]1CN(C)S(=O)(=O)c1ccc(Cl)cc1
0.4	2	7	0.2	Cc1noc(C)c1NC(=O)Nc1ccc2c(c1)C(=O)N([C@H](C)CO)C[C@@H](C)[C@@H](CN(C)Cc1ccccc1)OCCCC[C@@H](C)O2
1.1	-1	3	2.0	CO[C@H]1CN(C)C(=O)c2ccc(NC(C)=O)cc2OC[C@@H](C)N(C(=O)Cc2cccnc2)C[C@H]1C
-1.2	2	2	-3.8	CN(C)C(=O)[C@H]1[C@H](CO)[C@H]2Cn3c(ccc(C4=CCCC4)c3=O)[C@@H]1N2CC1CC1
-3.0	0	11	5.4	CN(C)C(=O)c1cccc(-c2ccc([C@H]3[C@H](CO)N4C(=O)CN(C(=O)C5CCCCC5)C[C@@H]34)cc2)c1
2.2	2	5	3.2	COc1ccccc1S(=O)(=O)N[C@@H]1CC[C@@H](CCn2cc(C3CCCC3)nn2)O[C@H]1CO
-0.1	5	14	0.1	CN(C)C(=O)C[C@@H]1CC[C@H]2[C@H](COc3ccc(NC(=O)C4CCCC4)cc3C(=O)N2C)O1
-1.7	-1	-1	-0.9	COCC(=O)Nc1ccc2c(c1)OC[C@H](C)N(CC1CC1)C[C@H](C)[C@@H](OC)CN(C)C2=O
-0.3	1	-1	-1.1	COc1ccc2c3c([nH]c2c1)[C@@H](CO)N(C(=O)Nc1ccc(F)cc1)CC31CN(Cc2cc(-c3ccccc3)on2)C1
-1.4	-9	-30	27	COc1ccc(C#Cc2ccc([C@@H]3[C@H](CO)N4C(=O)CN(C(=O)Nc5ccccc5F)C[C@@H]34)cc2)cc1
-68	1	1	-1.4	CC(=O)NC1CC2CCCC(C1)N2C(=O)Nc1ccc(Cl)cc1 (centres undefined)
-1.6	-2	-7	0.6	O=C1CN(S(=O)(=O)Cc2ccccc2)C[C@H]2[C@@H](c3ccc(C#Cc4cccnc4)cc3)[C@@H](CO)N12

Limited to Ecoli rRNA inh RFP (3 entries from above):
mol | Ecoli rRNA inh RFP
CN(C)C(=O)c1cccc(-c2ccc([C@H]3[C@H](CO)N4C(=O)CN(C(=O)C5CCCCC5)C[C@@H]34)cc2)c1 | 5.4
COc1ccccc1S(=O)(=O)N[C@@H]1CC[C@@H](CCn2cc(C3CCCC3)nn2)O[C@H]1CO | 3.2
CN(C)C(=O)C[C@@H]1CC[C@H]2[C@H](COc3ccc(NC(=O)C4CCCC4)cc3C(=O)N2C)O1 | 0.1

The list goes on:
AF4-AF9 inh	Ecoli rRNA inh	Ecoli rRNA inh OD600	Ecoli rRNA inh RFP	SMILES
-2.3	-40	-62	2.6	O=C(c1cccc(F)c1)N1CC(=O)N2[C@H](CO)[C@H](c3ccc(C#Cc4ccc(F)cc4)cc3)[C@H]2C1
1.8	7	5	3.2	O=C(CSc1ccccc1F)NCC(c1ccco1)N1CCCCC1 (centres undefined)
-2.0	3	1	1.7	C[C@H](CO)N1C[C@H](C)[C@H](CN(C)Cc2cccnc2)Oc2ncc(C#Cc3cccnc3)cc2C1=O
-2.2	2	14	-0.6	CC(=O)N1[C@H](CO)[C@H](c2ccccc2)[C@H]1CN(C(=O)c1ccccc1F)C(C)C
2.3	0	1	-2.4	CCCC(=O)Nc1ccc2c(c1)C(=O)N(C)C[C@@H](OC)[C@@H](C)CN(C(=O)c1ccncc1)[C@H](C)CO2
1.3	0	-19	14	COc1ccc(-c2ccc([C@H]3[C@@H](CO)N4C(=O)CN(Cc5ccc(F)cc5)C[C@@H]34)cc2)cc1
21	-3	14	-5.7	COc1ccccc1C#Cc1ccc2c(c1)[C@@H]1NCC[C@@H]1[C@H](CO)N2
-1.1	-1	-1	0.3	O=C(C1CCCC1)N1CC2(C1)[C@H](c1ccccc1)[C@H](CO)N2CCC(F)(F)F
-3.8	-60	-76	-14	O=C(Nc1ccc(Cl)c(Cl)c1)N[C@@H]1CC[C@H](CCn2cc(C3CCCC3)nn2)O[C@@H]1CO
-1.2	-6	-1	2.3	O=C(C[C@H]1C[C@@H]2c3cc(NC(=O)NC4CCCCC4)ccc3O[C@@H]2[C@@H](CO)O1)NC1CCCC1
0.8	-2	3	-1.3	CCCN1C[C@H](C)[C@@H](OC)CN(C)C(=O)c2cc(NC(=O)c3ccccc3)ccc2OC[C@H]1C
-4.0&-1.1	0&-60	-9&-73	-2.5&-14	O=C(Nc1ccccc1Cl)N1[C@@H]2CNC[C@H]1C2c1ccc(-c2ccccc2)cc1 (some centres undefined)

Next section.
AF4-AF9 inh	Ecoli rRNA inh	Ecoli rRNA inh OD600	Ecoli rRNA inh RFP	SMILES
-3.8	4	16	-2.0	COc1ccc2c3c(n(C)c2c1)[C@H](CO)N(C(=O)NC1CCCC1)CC31CN(C)C1
7.7	0	9	14	O=C(c1ccncc1)N1CC(=O)N2[C@H](C1)[C@@H](c1ccc(/C=C/c3ccccc3)cc1)[C@@H]2CO
-6.8	-5	-22	-2.6	COc1ccc2c3c(n(C)c2c1)[C@H](CO)N(C)CC31CN(S(=O)(=O)c2cccs2)C1
-0.9	4	-10	20	COc1ccccc1NC(=O)N1CC(=O)N2[C@H](C1)[C@@H](c1ccc(C#Cc3ccc(F)cc3)cc1)[C@@H]2CO
-2.5	5	28	-5.5	Cc1ccc(S(=O)(=O)N(C)C[C@H]2OCCCC[C@H](C)Oc3ccc(NC(=O)Cc4ccccc4)cc3C(=O)N([C@@H](C)CO)C[C@@H]2C)cc1
-1.7	3	7	-1.0	CN(C)C(=O)c1ccc(-c2ccccc2[C@@H]2[C@@H](CO)N(C(=O)C3CCCC3)[C@H]2C#N)cc1
-1.0	3	4	0.1	COCCNC(=O)C[C@H]1C[C@H]2c3cc(NC(=O)COC)ccc3O[C@H]2[C@@H](CO)O1
-1.2	2	-3	0.7	COc1cccc(NC(=O)N2[C@@H](CO)[C@H](c3ccccc3)[C@@H]2CNCC(C)C)c1
-0.5	2	12	0.1	O=C(NCCN1CCCCC1)[C@H]1N[C@H]2c3ccc(-c4cccnc4)c(=O)n3C[C@H]2[C@@H]1CO
-1.9	2	10	4.3	CCC(=O)N1[C@H](CO)[C@@H](c2ccccc2-c2ccccc2)[C@@H]1C#N
17	8	6	1.2	CN(C)C(=O)c1ccc(-c2ccc([C@@H]3[C@@H](CO)N4C(=O)CN(C(=O)C5CC5)C[C@H]34)cc2)cc1
4.7	-4	-4	-1.8	COc1ccc2c3c(n(C)c2c1)[C@H](CO)N(C(=O)CC1CC1)CC31CCN(Cc2nccs2)CC1

Further results:
AF4-AF9 inh	Ecoli rRNA inh	Ecoli rRNA inh OD600	Ecoli rRNA inh RFP	SMILES
-1.9	-2	-4	-4.7	O=C1CNC[C@@H]2[C@H](c3ccc(-c4ccccc4F)cc3)[C@@H](CO)N12
0.2	-7	-9	-0.5	CN1C(=O)c2cc(NC(=O)Nc3ccc(Cl)cc3)ccc2OC[C@H]2O[C@@H](CC(=O)O)CC[C@H]21
2.8	-4	-11	5.4	CCCC(=O)Nc1ccc2c(c1)OC[C@@H](C)N(Cc1cc(F)ccc1F)C[C@@H](C)[C@H](OC)CN(C)C2=O
-1.5	6	-8	0.0	COc1cccc(CN2[C@H](CO)[C@@H](c3ccccc3)C23CN(C(=O)C2CCC2)C3)c1
-2.3	0	2	-0.6	C[C@@H]1CN([C@@H](C)CO)C(=O)c2cc(NC(=O)Nc3ccc(F)cc3)ccc2O[C@@H](C)CCCCO[C@H]1CN(C)Cc1ccc(C(=O)O)cc1
3.1	1	3	1.3	CO[C@H]1CN(C)C(=O)c2cc(NC(=O)Nc3cc(F)ccc3F)ccc2OC[C@H](C)N(C(=O)c2ccccn2)C[C@@H]1C
-12	1	4	-1.4	NCC[C@H]1CC[C@H](NC(=O)C2CC2)[C@H](CO)O1
-1.4	1	1	-1.6	CCCNC(=O)N1CC2(C1)[C@H](c1ccccc1)[C@@H](CO)N2C(=O)C1CCC1
3.7	4	-10	5.3	C/C=C/c1ccc([C@H]2[C@@H](CO)N3C(=O)CN(Cc4ccc(C)cc4)C[C@@H]23)cc1
-1.8	-3	-8	-2.1	CCC(=O)N(C)C[C@H]1[C@@H](c2ccc(-c3ccc(F)cc3)cc2)[C@@H](CO)N1C(C)=O
0.3	3	6	-2.5	O=C(NC1CCCCC1)N1CC(=O)N2[C@H](CO)[C@H](c3ccc(-c4cccnc4)cc3)[C@H]2C1
-4.7	0	3	1.4	COc1cc(CN2CC3(CN(C(=O)c4ccc5c(c4)OCO5)C3)c3c(n(C)c4cc(OC)ccc34)[C@@H]2CO)cc(OC)c1

Next part
AF4-AF9 inh	Ecoli rRNA inh	Ecoli rRNA inh OD600	Ecoli rRNA inh RFP	SMILES
0.4	4	10	-1.1	C[C@H](CO)N1C[C@H](C)[C@H](CN(C)C(=O)Nc2cccc(Cl)c2Cl)OCc2ccccc2-c2c(n(C)c3ccccc23)C1=O
0.1	5	7	-0.5	CO[C@H]1CN(C)C(=O)c2cc(NC(=O)NC3CCCC3)ccc2OC[C@@H](C)N(C)C[C@@H]1C
2.2	1	-43	18	O=C(Cc1ccccn1)N1CC(=O)N2[C@H](CO)[C@H](c3ccc(C#CC4CCCCC4)cc3)[C@@H]2C1
2.6	-14	-61	17	O=C(Nc1ccccc1F)N1CC(=O)N2[C@H](CO)[C@H](c3ccc(C#CC4CCCC4)cc3)[C@@H]2C1
-0.2	4	-1	-1.9	O=C(C[C@@H]1CC[C@H]2[C@@H](COC[C@H](O)CN2S(=O)(=O)c2ccccc2)O1)NCCN1CCCC1
0.3	-9	-56	15	CC(C)CC#Cc1ccc([C@H]2[C@@H](CO)N3C(=O)CN(C(=O)c4ccc5c(c4)OCO5)C[C@H]23)cc1
-3.4	1	13	-1.4	CN(C)C(=O)C[C@@H]1CC[C@H]2[C@@H](COc3ccc(NC(=O)C4CCC4)cc3C(=O)N2C)O1
0.5	-20	-52	30	O=C(Nc1cccc(F)c1)N1CC(=O)N2[C@@H](CO)[C@H](c3ccc(-c4cccc(F)c4)cc3)[C@@H]2C1
-3.7	6	10	0.5	CCCNC(=O)N1CC2(C1)CN(C(=O)CN1CCOCC1)[C@@H](CO)c1[nH]c3cc(OC)ccc3c12
6.1	5	10	2.1	COc1ccc2c3c(n(C)c2c1)[C@H](CO)N(CC1CCOCC1)CC31CCN(CC2CCOCC2)CC1
14	-7	-14	2.5	Cc1cc(C(=O)Nc2cccc3c2O[C@H](CN(C)Cc2ccc(Oc4ccccc4)cc2)[C@H](C)CN([C@@H](C)CO)C3=O)n(C)n1
-5.2	-1	0	-3.4	O=C(C[C@H]1CC[C@@H](NS(=O)(=O)c2ccccc2)[C@@H](CO)O1)N1CCN(c2ccccc2)CC1
0.2	1	-7	2.6	O=C(C1CCCCC1)N1CC(=O)N2[C@@H](CO)[C@H](c3ccc(-c4ccccc4F)cc3)[C@@H]2C1
1.0	2	2	-0.1	N#C[C@@H]1[C@H](c2ccc(C#CC3(O)CCCC3)cc2)[C@@H](CO)N1C(=O)C1CC1
